MLL AF4-AF9 inh: blocks AF4 peptide binding to human AF9. 0.47% of 350,000 active. AID 651704. AlphaScreen, biotin-AF4 peptide binding to FLAG-AF9. inhibition, % at 10 µM. P42568;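 active = every replicate reaching a set inhibition limit, whatever the replicate mean, cut at about 25% in these data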;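 note: 0% = plate neutral control median and 100% = total signal loss; the record names both 10 and 1 µM as test concentration; the first replicate is given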
Target sequence (P42568 whole entry, looked up): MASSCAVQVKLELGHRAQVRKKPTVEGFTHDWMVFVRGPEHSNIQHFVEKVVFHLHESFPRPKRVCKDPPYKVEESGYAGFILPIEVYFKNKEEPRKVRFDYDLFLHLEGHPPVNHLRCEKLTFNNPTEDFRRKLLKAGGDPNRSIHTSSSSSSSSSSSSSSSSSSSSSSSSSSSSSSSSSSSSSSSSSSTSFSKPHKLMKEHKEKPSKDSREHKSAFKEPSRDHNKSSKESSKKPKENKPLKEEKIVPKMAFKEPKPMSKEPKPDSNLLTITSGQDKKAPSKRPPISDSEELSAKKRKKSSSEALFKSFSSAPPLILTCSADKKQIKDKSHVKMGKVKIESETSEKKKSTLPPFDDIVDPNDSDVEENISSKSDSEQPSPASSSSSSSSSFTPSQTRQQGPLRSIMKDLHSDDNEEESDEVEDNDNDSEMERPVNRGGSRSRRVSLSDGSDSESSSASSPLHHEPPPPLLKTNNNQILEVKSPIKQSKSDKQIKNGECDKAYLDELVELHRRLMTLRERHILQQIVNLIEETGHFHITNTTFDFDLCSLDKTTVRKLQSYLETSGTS
* = called active by the depositor; & = joins results of further samples. Only part of the results is shown; rates above refer to the full screens.

MLL AF4-AF9 inh | SMILES
0.9 | O=C(C[C@H]1C[C@@H]2c3cc(NS(=O)(=O)c4ccccc4)ccc3O[C@@H]2[C@@H](CO)O1)NCC(F)(F)F
-1.6 | C[C@@H]1CN([C@@H](C)CO)C(=O)Cc2cc(NS(=O)(=O)c3cccs3)ccc2O[C@@H]1CN(C)C(=O)Nc1ccc2c(c1)OCO2
-2.2 | O=C(C[C@H]1C[C@@H]2c3cc(NC(=O)C4CCOCC4)ccc3O[C@@H]2[C@H](CO)O1)NCC1CC1
0.3 | Cc1ccc(S(=O)(=O)Nc2ccc3c(c2)C(=O)N([C@H](C)CO)C[C@H](C)[C@@H](CN(C)S(=O)(=O)c2ccccc2)O3)cc1
2.8 | Cc1ccc(NC(=O)c2ncn(CCCNCC3CCCO3)n2)cc1C (stereo not given)
-12.5 | CCCN1C[C@H](C)[C@@H](OC)CN(C)C(=O)c2ccc(NC(=O)COC)cc2OC[C@H]1C
5.6 | COc1ccc(S(=O)(=O)Nc2ccc3c(c2)CC(=O)N([C@@H](C)CO)C[C@H](C)[C@H](CN(C)Cc2ccc(Oc4ccccc4)cc2)O3)cc1
-11.3 | COCC(=O)N(C)C[C@H]1Oc2ncc(C#Cc3ccncc3)cc2C(=O)N([C@H](C)CO)C[C@@H]1C
-9.3 | Cc1cc(F)ccc1C(O)c1ncc(-c2ccccc2)[nH]1 (stereo not given)
-2.2 | O=C(Nc1ccc(F)c(Cl)c1)Nc1nnc([C@@H]2O[C@H](CO)[C@@H](O)[C@H]2O)s1

Further results:
MLL AF4-AF9 inh | SMILES
-3.1 | C[C@H]1CN([C@@H](C)CO)C(=O)Cc2cc(NC(=O)c3ccncc3)ccc2O[C@H]1CN(C)S(=O)(=O)c1ccccc1
-4.1 | CC(C)NC(=O)N(C)C[C@@H]1OCCCC[C@@H](C)Oc2ccc(NC(=O)Nc3ccc(C(F)(F)F)cc3)cc2C(=O)N([C@@H](C)CO)C[C@H]1C
3.8 | CC(C)NC(=O)N(C)C[C@@H]1OCCCC[C@@H](C)Oc2ccc(NS(=O)(=O)c3cn(C)cn3)cc2C(=O)N([C@@H](C)CO)C[C@H]1C
-4.2 | C[C@@H]1CN([C@H](C)CO)C(=O)Cc2cc(NC(=O)NC3CCCCC3)ccc2O[C@H]1CN(C)C(=O)Nc1ccc2c(c1)OCO2
5.3 | Cc1ccc(-c2ccc3c(c2)O[C@@H](CN(C)Cc2ccc(C(=O)O)cc2)[C@H](C)CN([C@H](C)CO)S3(=O)=O)cc1
10.0 | COc1ccc(CN(C)C[C@@H]2OCCCC[C@@H](C)Oc3ccc(NC(=O)c4ccccc4)cc3C(=O)N([C@@H](C)CO)C[C@@H]2C)cc1
-16.4 | CN(C)C(=O)C[C@@H]1CC[C@H](NS(=O)(=O)c2ccccc2)[C@@H](CO)O1
-3.4 | COCC(=O)Nc1ccc2c(c1)[C@@H]1C[C@H](CC(=O)NCc3cccc(F)c3)O[C@@H](CO)[C@@H]1O2
-0.3 | C[C@H](NC(=O)C[C@H]1CC[C@H]2[C@@H](COC[C@@H](O)CN2Cc2ccc(C(F)(F)F)cc2)O1)c1ccccc1
6.0 | C[C@H](CO)N1C[C@H](C)[C@@H](CN(C)Cc2ccc(Oc3ccccc3)cc2)Oc2c(NC(=O)Nc3ccc(C(F)(F)F)cc3)cccc2C1=O

Further entries follow.
MLL AF4-AF9 inh | SMILES
3.6 | COc1cccc(NC(=O)N2[C@H](CO)[C@H](c3ccccc3)[C@H]2CNCC(C)C)c1
27.8* | Cc1noc(C)c1NC(=O)N(C)C[C@@H]1Oc2cc(C#CCC(C)C)ccc2S(=O)(=O)N([C@@H](C)CO)C[C@@H]1C
5.4 | C[C@H]1CN([C@@H](C)CO)C(=O)Cc2cc(NS(=O)(=O)c3cn(C)cn3)ccc2O[C@@H]1CN(C)Cc1ccc(-c2ccccc2)cc1
-1.6 | C[C@@H]1CN([C@H](C)CO)C(=O)c2cccc(NC(=O)Nc3ccc(F)cc3)c2O[C@H]1CN(C)Cc1ccc(C(=O)O)cc1
-0.7 | CCS(=O)(=O)NCC[C@@H]1CC[C@@H](NC(=O)C2CCC2)[C@H](CO)O1
2.2 | COc1cccc(-c2cnc3c(NC(C)=O)cc(-c4ccncc4)cn23)c1
-4.4 | C[C@H]1CCCCO[C@@H](CN(C)S(=O)(=O)c2cccs2)[C@@H](C)CN([C@@H](C)CO)C(=O)c2cc(NC(=O)Nc3ccc(F)cc3)ccc2O1
1.7 | C[C@@H]1CN([C@H](C)CO)S(=O)(=O)c2ccc(-c3cncnc3)cc2O[C@H]1CN(C)C(=O)Cc1ccccc1
1.0 | C[C@@H]1CN([C@@H](C)CO)C(=O)Cc2cc(NC(=O)CCCCCC(=O)Nc3ccccc3N)ccc2O[C@H]1CN(C)S(=O)(=O)c1ccc(F)cc1
-8.1 | C[C@@H]1CN([C@H](C)CO)C(=O)c2cccc(NC(=O)C3CCCCC3)c2O[C@H]1CN(C)S(=O)(=O)c1ccccc1

The listing continues:
MLL AF4-AF9 inh | SMILES
0.1 | COc1ccc(NC(=O)N2C[C@H]3[C@@H](c4ccccc42)[C@@H](CO)N3C(=O)C2CCCCC2)cc1
-2.1 | CO[C@H](CN(C)C(=O)C1CCOCC1)[C@H](C)CN(C(=O)Nc1ccc(C(F)(F)F)cc1)[C@H](C)CO
-2.9 | Nc1sccc1C(=O)NC1CC1
1.9 | C[C@@H]1CCCCO[C@@H](CN(C)S(=O)(=O)c2ccc(Cl)cc2)[C@@H](C)CN([C@@H](C)CO)C(=O)c2cc(NC(=O)c3ccncc3)ccc2O1
1.2 | C[C@@H]1CN([C@@H](C)CO)C(=O)c2cccc(NC(=O)C3CCCCC3)c2O[C@@H]1CN(C)Cc1ccccc1
1.1 | O=C(C[C@H]1CC[C@H]2[C@@H](COC[C@@H](O)CN2Cc2cccc(F)c2)O1)NCC1CCCCC1
6.3 | O=C(C[C@H]1CC[C@@H]2[C@H](COC[C@H](O)CN2S(=O)(=O)c2ccc(Cl)cc2)O1)NCc1ccc(Cl)c(Cl)c1
-2.0 | CC=Cc1ccc2n(c1=O)C[C@@H]1[C@@H](CO)[C@H](C(=O)NC3CCC3)[C@H]2N1C(=O)c1cnccn1 (mixture of isomers)
2.4 | CCOC(=O)N1CCN(C(=O)C[C@@H]2C[C@@]3(C(=O)OC)CCCCC=C3N(CCC3=CCCCC3)C2=O)CC1
0.7 | CN1[C@@H]2Cn3c(ccc(-c4ccncc4)c3=O)[C@H]1[C@@H](C(=O)Nc1nccs1)[C@@H]2CO

Next section.
MLL AF4-AF9 inh | SMILES
-0.7 | C[C@H](NC(=O)[C@@H]1[C@@H](CO)[C@@H]2Cn3c(ccc(C4=CCCCC4)c3=O)[C@@H]2N1C)c1ccccc1
-2.4 | Cc1noc(C)c1S(=O)(=O)Nc1cccc2c1O[C@H](CN(C)S(=O)(=O)c1c(C)noc1C)[C@H](C)CN([C@@H](C)CO)C2=O
1.5 | O=C(c1cnccn1)N1CC(=O)N2[C@H](CO)[C@H](c3ccc(C#CC4CCCC4)cc3)[C@H]2C1
-1.8 | Nc1[nH]c(C(=O)c2ccccc2)c(-c2ccc(Cl)cc2Cl)c1C(=O)c1ccc(Br)cc1
-4.1 | C/C=C/c1cnc2c(c1)C(=O)N([C@@H](C)CO)C[C@H](C)[C@@H](CN(C)CC1CCCC1)O2
3.9 | CCOC(=O)N1CCN(C(=O)C[C@@H]2C[C@@]3(C(=O)OCC)CCC=C3N(Cc3ccc(Cl)cc3Cl)C2=O)CC1
-0.1 | CCNC(=O)[C@H]1[C@H](CO)[C@H]2Cn3c(ccc(C4=CCCC4)c3=O)[C@@H]1N2C(=O)C1CC1
-10.6 | COc1ccc(Cl)c(-c2cc(C(=O)NCc3ccc(C(F)(F)F)cc3)[nH]n2)c1
4.9 | CC(C)(C)c1ccc(C(O)c2ncc(-c3ccc(F)cc3)[nH]2)cc1 (stereo not given)
6.3 | Cc1cc(C)cc(C(O)c2ncc(-c3ccccc3C(F)(F)F)[nH]2)c1 (stereo not given)

A draw from above in order of number of heavy atoms, rising:
MLL AF4-AF9 inh | SMILES
4.9 | CC(C)(C)c1ccc(C(O)c2ncc(-c3ccc(F)cc3)[nH]2)cc1 (stereo not given)
-10.6 | COc1ccc(Cl)c(-c2cc(C(=O)NCc3ccc(C(F)(F)F)cc3)[nH]n2)c1
-0.1 | CCNC(=O)[C@H]1[C@H](CO)[C@H]2Cn3c(ccc(C4=CCCC4)c3=O)[C@@H]1N2C(=O)C1CC1
-1.8 | Nc1[nH]c(C(=O)c2ccccc2)c(-c2ccc(Cl)cc2Cl)c1C(=O)c1ccc(Br)cc1
1.5 | O=C(c1cnccn1)N1CC(=O)N2[C@H](CO)[C@H](c3ccc(C#CC4CCCC4)cc3)[C@H]2C1
3.9 | CCOC(=O)N1CCN(C(=O)C[C@@H]2C[C@@]3(C(=O)OCC)CCC=C3N(Cc3ccc(Cl)cc3Cl)C2=O)CC1
-2.4 | Cc1noc(C)c1S(=O)(=O)Nc1cccc2c1O[C@H](CN(C)S(=O)(=O)c1c(C)noc1C)[C@H](C)CN([C@@H](C)CO)C2=O

Further compounds.
MLL AF4-AF9 inh | SMILES
-8.6 | COc1ccc(NC(=O)N(C)C[C@@H]2Oc3ncc(-c4ccc(C#N)cc4)cc3C(=O)N([C@H](C)CO)C[C@@H]2C)cc1
10.6 | Cc1cnc(C)c(Nc2nc(C(N)CCc3ccccc3)cs2)n1 (stereo not given)
-0.5 | C[C@H]1CN([C@@H](C)CO)C(=O)Cc2cc(NC(=O)CCN3CCOCC3)ccc2O[C@H]1CN(C)Cc1ccc(C(F)(F)F)cc1
-0.3 | CO[C@H]1CN(C)C(=O)c2cc(NC(=O)C3CC3)ccc2OC[C@@H](C)N(CC2CC2)C[C@H]1C
6.0 | C[C@H](CO)N1C[C@H](C)[C@@H](CN(C)Cc2cccnc2)Oc2cc(C#CC3CCCC3)ccc2S1(=O)=O
8.5 | CCCNC(=O)N1CC2(CCN(CC3CC3)CC2)c2c([nH]c3cc(OC)ccc23)[C@@H]1CO
0.5 | COc1cc2c(cc1OC)CN(C(=O)[C@H]1[C@@H]3C(=O)O[C@@H](c4ccccc4)[C@@H](c4ccccc4)N3[C@@H](c3ccccc3OCCO)[C@]13C(=O)Nc1ccc(C#CCCO)cc13)CC2
-2.1 | COCCN(C[C@H]1N[C@H](CO)[C@@H]1c1ccccc1)C(=O)NC1CCCC1
0.8 | C[C@H]1CN([C@@H](C)CO)C(=O)Cc2cc(NC(=O)C3CCCCC3)ccc2O[C@@H]1CN(C)Cc1ccncc1
-1.1 | N#C[C@H]1[C@@H](c2ccc(C#CC3CC3)cc2)[C@@H](CO)N1S(=O)(=O)c1ccccc1

Remaining list, next part.
MLL AF4-AF9 inh | SMILES
12.4 | C[C@H](CO)N1C[C@H](C)[C@H](CN(C)C(=O)Nc2ccc3c(c2)OCO3)Oc2ncc(/C=C/c3ccccc3)cc2C1=O
4.1 | CN1[C@H](C(=O)NCCc2ccccc2)[C@@H](CO)[C@@H]2Cn3c(ccc(-c4ccccc4)c3=O)[C@@H]21
-2.4 | CCC(=O)Nc1ccc2c(c1)C(=O)N(C)C[C@H](OC)[C@@H](C)CN(CCC(F)(F)F)[C@H](C)CO2
4.7 | COc1ccccc1C#Cc1ccc([C@H]2[C@H](CO)N3CCCCN(C(=O)C4CCC4)C[C@@H]23)cc1
1.8 | C[C@@H]1CN([C@@H](C)CO)C(=O)Cc2cc(NC(=O)Nc3cccc4ccccc34)ccc2O[C@H]1CN(C)S(=O)(=O)c1ccc(F)cc1
-2.7 | O=C1Cc2ccccc2C(=O)N1
0.6 | C[C@@H]1CN([C@@H](C)CO)S(=O)(=O)c2ccc(C#CC(C)(C)O)cc2O[C@@H]1CN(C)C(=O)C1CCCCC1
2.7 | C[C@@H]1CN([C@@H](C)CO)C(=O)c2cc(N(C)C)ccc2O[C@H]1CN(C)S(=O)(=O)c1cccs1
-2.6&-13.5&-2.4 | C[C@@H]1CN([C@@H](C)CO)C(=O)CCCn2nncc2CO[C@@H]1CN(C)C(=O)c1ccncc1
7.9 | C[C@@H]1CN([C@@H](C)CO)C(=O)Cc2cc(NC(=O)Nc3ccc4c(c3)OCO4)ccc2O[C@@H]1CN(C)S(=O)(=O)c1ccc(Cl)cc1

More records follow.
MLL AF4-AF9 inh | SMILES
-6.2 | CCCC#Cc1ccc([C@H]2[C@@H](C#N)N(C(=O)C3CCOCC3)[C@H]2CO)cc1
-2.2 | COc1cccc(-c2cn(CC[C@@H]3CC[C@@H](NC(=O)CN(C)C)[C@H](CO)O3)nn2)c1
-2.7 | C[C@H](O)C#Cc1cnc2c(c1)C(=O)N([C@@H](C)CO)C[C@H](C)[C@H](CN(C)C(=O)Nc1ccc(C(F)(F)F)cc1)O2
-2.2 | C/C=C/c1cnc2c(c1)C(=O)N([C@H](C)CO)C[C@@H](C)[C@@H](CN(C)C(=O)c1ccc3c(c1)OCO3)O2
-0.7 | CC(C)NC(=O)Nc1cccc2c1O[C@@H](CN(C)Cc1ccc(C(F)(F)F)cc1)[C@@H](C)CN([C@@H](C)CO)C2=O
3.3 | C[C@H](CO)N1C[C@H](C)[C@H](CN(C)S(=O)(=O)c2ccc(Cl)cc2)Oc2ccc(NC(=O)Nc3ccccc3)cc2C1=O
-4.2 | C[C@@H]1CN([C@H](C)CO)S(=O)(=O)c2ccc(Br)cc2O[C@@H]1CN(C)Cc1ccccn1
-3.3 | C[C@H](CO)N1C[C@H](C)[C@@H](CN(C)S(=O)(=O)c2cccs2)OCCCC[C@H](C)Oc2ccc(NS(=O)(=O)c3ccc(F)cc3)cc2C1=O
0.4 | COc1ccc2c3c(n(C)c2c1)[C@@H](CO)N(Cc1ccccc1)CC31CN(C(=O)Nc2cccc(F)c2)C1
-4.0 | CO[C@H]1CN(C)C(=O)c2cc(NS(=O)(=O)c3ccccc3C)ccc2OC[C@H](C)N(C)C[C@@H]1C
1.3 | O=C(Nc1ccccc1)[C@H]1[C@H](CO)[C@H]2Cn3c(cccc3=O)[C@H]2N1Cc1ccccc1Cl
-11.6 | COc1ccc2c3c([nH]c2c1)[C@H](CO)N(C(=O)c1ccc(F)cc1)CC31CCN(C(=O)NC(C)C)CC1
-0.6 | C/C=C/c1ccc2c(c1)O[C@@H](CN(C)C(=O)c1ccccn1)[C@H](C)CN([C@@H](C)CO)S2(=O)=O
